Bioassay records as filed in PubChem BioAssay.
Cdc25B block: human M-phase inducer phosphatase 2 inhibition | P30305 | recombinant Cdc25B, OMFP fluorescence Ex485/Em525 | inhibition, %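 (compounds tested at 10 µM final in the well)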 | 65,000 tested, 0.1% active; in the data active means inhibition above about 50%
DUSP1 inh: human dual specificity phosphatase 1 inhibition; 65,000 tested, 0.15% active; recombinant MKP-1, OMFP hydrolysis fluorescence; inhibition, %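 (compounds tested at a single concentration somewhere between 10 and 100 µM)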; P28562; AID 374;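 active means inhibition above about 50%, limit read from the data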;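 further: 0% = DMSO max control wells and 100% = wells with enzyme stopped by NaOH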
Target sequence (P28562 whole entry, looked up): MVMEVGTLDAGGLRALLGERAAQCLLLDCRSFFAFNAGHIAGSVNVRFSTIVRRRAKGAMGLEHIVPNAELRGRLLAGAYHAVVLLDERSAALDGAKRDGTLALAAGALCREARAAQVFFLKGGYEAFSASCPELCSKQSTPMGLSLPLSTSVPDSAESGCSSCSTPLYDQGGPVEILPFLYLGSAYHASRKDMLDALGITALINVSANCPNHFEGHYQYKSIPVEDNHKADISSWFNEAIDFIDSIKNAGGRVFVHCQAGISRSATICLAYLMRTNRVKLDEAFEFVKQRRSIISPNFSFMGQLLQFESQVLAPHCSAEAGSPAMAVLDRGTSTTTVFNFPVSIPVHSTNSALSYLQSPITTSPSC
Her2 expr inh: inhibitors of human Her2 kinase expression; HER2 level % of control, % at 10 µM; 65,000 tested, 0.69% active; SKBR-3 HER2 protein level, AlphaScreen, 18-24 h; stronger effect = lower value; AID 645;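 active means HER2 level under 5% of the carrier-only control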;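 further: 100% = DMSO carrier and 0% = 500 nM PU-H71 HSP90 inhibitor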
Abs 340nm: absorbance at 340 nm. compound absorbance at 340 nm, fold over control. fold change at 10 µM. 65,000 tested, under 10 active. AID 708;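 active means at 10 µM dose, initial 340 nm absorbance at least 2 fold that of control wells; inactive means change under 2 fold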;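 further: initial absorbance extrapolated from kinetic A340 decline of NADH oxidation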
Hsp90 inh: displaces geldanamycin probe from tumor Hsp90. P07900. NCI-N417 lysate Hsp90, Cy3B-geldanamycin FP displacement. inhibition, % at 30 µM. 64,000 tested, 0.35% active;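 active means inhibition above 50%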;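 further: 0% = tracer plus lysate wells and 100% = tracer alone without lysate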
* marks the source's active call; other numbers are inactive results. Some of the compounds tested; the hit share may differ from the screen's.

SMILES	Cdc25B block	DUSP1 inh	Her2 expr inh	Abs 340nm	Hsp90 inh
CC(C)(C)c1ccc(OCC(=O)NC2CCS(=O)(=O)C2)cc1 (configuration not stated)	-4	-3	96	1.1	1
CCCc1nc(NCc2ccncc2)c2nnn(Cc3ccccc3F)c2n1	10	5	74	0.98	-1
CCOc1ccc(C=NC23CN4CN(CN(C4)C2)C3)cc1	-3	-27	114	1	-3
Cn1c(=O)c2c(-c3ccccc3)n3c4ccccc4ncc3c2n(C)c1=O	-14	11	38	1.1	-1
CC(C)(C)N(Cc1ccccc1)C(=O)c1ccc2c(c1)OCCO2	-1	-13	86	1	-2
O=C(NCc1cccs1)c1cccc(S(=O)(=O)N2CCCCC2)c1	6	-4	76	1	0
Cn1c(SCCOc2cccc(Cl)c2)nnc1-c1ccncc1	-8	4	102	1	-4
O=S(=O)(c1ccccc1Cl)N1CCC(O)(c2ccc3c(c2)OCO3)CC1	-7	0	123	1	1
O=C(NCCN1CCOCC1)c1cc2ccccc2[nH]1	-14	-13	152	1	-11
COC(=O)c1cc2ccsc2n1Cc1cc(=O)n2ccccc2n1	-11	9	89	1.1	-4
CN(Cc1nc(-c2ccccn2)no1)S(=O)(=O)c1ccc(Cl)cc1	-3	-2	79	1	-6
c1ccc(OCc2nn3c(Cn4nnc5ccccc54)nnc3s2)cc1	2	-8	73	1	-6

New compounds follow
SMILES	Cdc25B block	DUSP1 inh	Her2 expr inh	Abs 340nm	Hsp90 inh
c1ccc(N(c2ccccc2)c2nc(N3CCCC3)nc(-n3ccnc3)n2)cc1	10	-1	80	0.98	-2
CC(C)(C)c1cc(NC(=O)C2CCCO2)no1 (configuration not stated)	-10	-8	82	1.1	-4
Cc1ccc(-c2nn3c(C)nnc3s2)cc1N	-8	2	64	0.99	-16
CCOc1cc(C2/C(=C(/O)c3ccc(OC(C)C)cc3)C(=O)C(=O)N2CCCOC)ccc1O (configuration not stated)	-6	-9	116	1	3
CCOC(=O)Cn1c(C)c(C#N)c2ccccc21	-1	-11	84	1	-4

Another view of four compounds above.
CCOc1ccc(C=NC23CN4CN(CN(C4)C2)C3)cc1
  Cdc25B block = -3
  DUSP1 inh = -27
  Her2 expr inh = 114
  Abs 340nm = 1
  Hsp90 inh = -3

Cn1c(=O)c2c(-c3ccccc3)n3c4ccccc4ncc3c2n(C)c1=O
  Cdc25B block = -14
  DUSP1 inh = 11
  Her2 expr inh = 38
  Abs 340nm = 1.1
  Hsp90 inh = -1

CC(C)(C)N(Cc1ccccc1)C(=O)c1ccc2c(c1)OCCO2
  Cdc25B block = -1
  DUSP1 inh = -13
  Her2 expr inh = 86
  Abs 340nm = 1
  Hsp90 inh = -2

O=C(NCc1cccs1)c1cccc(S(=O)(=O)N2CCCCC2)c1
  Cdc25B block = 6
  DUSP1 inh = -4
  Her2 expr inh = 76
  Abs 340nm = 1
  Hsp90 inh = 0

Quoted at random: two entries already listed.
SMILES	Cdc25B block	DUSP1 inh	Her2 expr inh	Abs 340nm	Hsp90 inh
CCOC(=O)Cn1c(C)c(C#N)c2ccccc21	-1	-11	84	1	-4
CCOc1cc(C2/C(=C(/O)c3ccc(OC(C)C)cc3)C(=O)C(=O)N2CCCOC)ccc1O (configuration not stated)	-6	-9	116	1	3
